Screening data: PubChem, Johns Hopkins Ion Channel Center
KCNQ2 enhance = enhances the rat KCNQ2 potassium channel | O88943 | CHO-K1 KCNQ2, FluxOR thallium flux fluorescence; stronger effect = higher value | B-score at 10 µM | hit rate 0.54% among 310,000;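 active means fluorescence ratio B-score at least 3 SD of library B-scores, with initial fluorescence B-score within 3 SD, cut at about 5.3 in these data; same plate scores as AID 2156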;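 further: B-score of peak minus minimum over baseline fluorescence ratio after K+ and Tl+ stimulus; positive B-score means potentiation of KCNQ2 with more thallium influx and brighter signal; only the inactives scoring about 0 or higher are listed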
Target sequence (O88943 whole entry, looked up): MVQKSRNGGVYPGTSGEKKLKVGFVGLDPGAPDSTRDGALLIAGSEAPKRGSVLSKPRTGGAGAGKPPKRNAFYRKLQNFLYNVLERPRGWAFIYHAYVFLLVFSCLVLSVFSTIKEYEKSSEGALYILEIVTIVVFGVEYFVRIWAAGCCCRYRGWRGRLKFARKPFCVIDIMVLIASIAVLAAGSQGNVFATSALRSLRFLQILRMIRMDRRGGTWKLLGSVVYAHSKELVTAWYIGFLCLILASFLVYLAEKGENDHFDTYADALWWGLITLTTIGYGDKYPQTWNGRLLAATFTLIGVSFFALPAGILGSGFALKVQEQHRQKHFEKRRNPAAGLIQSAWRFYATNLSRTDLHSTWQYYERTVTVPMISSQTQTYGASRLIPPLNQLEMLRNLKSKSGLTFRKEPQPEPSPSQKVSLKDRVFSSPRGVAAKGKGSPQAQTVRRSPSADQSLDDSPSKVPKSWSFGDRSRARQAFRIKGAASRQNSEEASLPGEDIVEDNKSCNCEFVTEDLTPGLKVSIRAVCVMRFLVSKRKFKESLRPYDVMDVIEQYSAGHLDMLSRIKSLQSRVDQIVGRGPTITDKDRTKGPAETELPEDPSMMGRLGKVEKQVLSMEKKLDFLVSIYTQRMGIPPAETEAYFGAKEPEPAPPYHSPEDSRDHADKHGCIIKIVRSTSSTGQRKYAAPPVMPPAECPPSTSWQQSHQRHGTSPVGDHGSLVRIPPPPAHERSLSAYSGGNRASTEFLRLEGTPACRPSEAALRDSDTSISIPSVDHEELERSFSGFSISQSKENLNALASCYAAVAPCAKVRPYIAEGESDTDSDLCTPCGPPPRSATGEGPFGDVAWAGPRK
KCNQ2 enhance baseline = second read-out of KCNQ2 enhance, no call of its own (marks repeat the call); B-score; compound at 10 µM; measured here: initial fluorescence intensity artifact check;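 brightness before thallium and not channel activity; 0 = typical well and far values either way flag optical interference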
Active calls of the source: *; & = joins results of further samples.

Each structure is followed by: KCNQ2 enhance | KCNQ2 enhance baseline
CC[C@H]1OC(=O)[C@H](C)[C@@H](O[C@H]2C[C@@](C)(OC)[C@@H](O)[C@H](C)O2)[C@H](C)[C@@H](O[C@@H]2O[C@H](C)C[C@H](N(C)C)[C@H]2O)[C@](C)(O)C[C@@H](C)C(=NOCOCCOC)[C@H](C)[C@@H](O)[C@]1(C)O
→ 0.58 | 0.06
CCCCSc1c(C)c2cc3c(cc2[nH]c1=O)OCO3
→ 1.3 | -0.86
CCc1ccc(NC(=O)CSc2nncn2-c2cccnc2)cc1
→ 0.38 | 0.53
O=C(CCn1cnc2ccccc2c1=O)Nc1nc(-c2ccc(Br)cc2)cs1
→ 1.1 | -1.5
Cc1cccc(C(=O)NCC(=O)OCC(=O)NC2CCCCCCC2)c1
→ 0.04 | 0.05
Cc1nc2ccccc2c(=O)n1NC(=O)c1ccc(F)cc1Cl
→ 0.4 | -0.04
CCSc1ncc(Cl)c(C(=O)Nc2sc3c(c2C(=O)NCc2cccnc2)CCCC3)n1
→ 0.06 | 1.6
CCC(=O)N1c2ccccc2-c2nnc(SC)nc2OC1c1ccc(N(C)C)cc1 (stereo not given)
→ 0.29 | -1.9
N#CC1=C(N)OC2=C(CC/C2=C\c2ccccc2Cl)C1c1ccccc1Cl (stereo not given)
→ 0.96 | -0.21
O=C(Nc1ccc(F)cc1)C1CCN(c2nnnn2-c2ccccc2)CC1
→ 0.1 | -0.33
C=CCNC(=O)c1ccc([N+](=O)[O-])c(Cl)c1
→ 0.58 | -1
Cc1ccc(S(=O)(=O)N2CCN(C(=O)Cn3nc(C)c([N+](=O)[O-])c3C)CC2)c(C)c1
→ 1.6 | 0.79
c1cnc2ncc3sccc3c2c1
→ 1.9 | 0.68
COc1ccc(OC)c(-c2csc(NC(=O)C3c4ccccc4Oc4ccccc43)n2)c1
→ 0.34 | -0.03
CCc1ccc(N2CC(C(=O)Nc3cc(C)ccc3F)CC2=O)cc1 (stereo not given)
→ 0.12 | 1.3
CC(C)CN1CCN(CC#Cc2ccccc2)CC1CCO (stereo not given)
→ 0.4 | 1.5
O=C(O)c1ccc2c(c1)OCCO2
→ 0.75 | -0.27
Cc1c(NC(=O)C(C)Sc2nc3ccccc3c(=O)n2CCO)c(=O)n(-c2ccccc2)n1C (stereo not given)
→ 0.4 | 0.15
COc1cccc(C(=O)NCCS(=O)(=O)NCc2cccs2)c1
→ 0.63 | 1.2
COc1cccc(NC(=O)Nc2cc(NC(=O)Nc3cccc(OC)c3)c(C)nc2C)c1
→ 0.17 | -0.37
CC/C(C)=C1\SC(N2CCN(c3cccc(C(F)(F)F)c3)CC2)=NC1=O
→ 1.5 | 0.33
CC(=O)c1ccc(N2C(=NC(=O)C(C)C)SC3CS(=O)(=O)CC32)cc1 (stereo not given)
→ 1.8 | 0.75
CCc1ccc(OCc2cccc(C(=O)N/N=C\c3cnn(C)c3C)c2)cc1
→ 0.62 | -0.43
CN(Cc1ccccc1)Cc1c[nH]c2ccccc12
→ 0.82 | 0.25
Cc1ccccc1Nc1nnc(SCC(=O)c2cc3ccccc3o2)s1
→ 0.44 | -0.65
Cc1cc(C)cc(OCCN2CCOCC2)c1
→ 0.64 | -0.15
COc1ccccc1NC(=O)c1ccc(C)s1
→ 0.13 | -1.7
Cc1ccc(C)c(NC(=O)c2ccccc2NC(=O)C2CCCO2)c1 (stereo not given)
→ 0.55 | -0.03
Cc1onc(C(=O)/C=C/N(C)C)c1C(=O)Nc1nccs1
→ 0.47 | -0.67
Cc1ccccc1NC(=O)N1CCC(NC(=O)C2CCCCC2)CC1
→ 1.3 | -0.4
Cc1ccc(OCC(=O)NNC(=O)C2CCN(c3nc(C)cc(C)n3)CC2)cc1
→ 1.5 | -1
CC(C)c1ccc(NC(=S)Nc2cccc3ccccc23)cc1
→ 2.5 | 0.17
COc1ccccc1CNC(=O)C(NS(=O)(=O)c1ccc2c(c1)OCCO2)C(C)C (stereo not given)
→ 0.52 | 0.01
CCC(C)NS(=O)(=O)c1ccc(OCC(=O)N2CCCC2)cc1 (stereo not given)
→ 1.3 | 0.18
N#C/C(=N\Nc1cccc([N+](=O)[O-])c1)C(=O)c1ccc(Br)cc1
→ 3 | -1.8
C/C(CC(=O)N(C(C)C)C(C)C)=N\NC(=O)c1ccccc1Br
→ 0.96 | -0.57
CC(=O)c1ccc(OCC(O)CN2CCN(Cc3ccc4c(c3)OCO4)CC2)cc1 (stereo not given)
→ 2.1&0.1 | -1.5&1.9
COc1cccc(OC)c1C(=O)Nc1nc2cc3c(cc2s1)OCO3
→ 0.44 | 1.3
CCC(C)NC(=O)C1CCN(S(=O)(=O)c2ccc(-n3cnnn3)cc2)CC1 (stereo not given)
→ 0.08 | 0.94
COc1ccc(OC)c(N2C(=O)CC(Cc3cc(C)cc(C)c3)C2=O)c1 (stereo not given)
→ 0.46 | -0.02
Cc1ccccc1CC(=O)Nc1ccc(C(=O)N2CCCC2)cc1
→ 0.06 | 0.08
O=[n+]1c2c(n([O-])c3ccccc31)CCCC2
→ 2.8 | 1
Cn1c(=O)c(=O)n(C)c2cc(N3CCOCC3)c(NS(=O)(=O)c3ccc([N+](=O)[O-])cc3)cc21
→ 0.28 | 1
COc1cc(-c2noc(CCCC(=O)NCc3ccco3)n2)cc(OC)c1OC
→ 1.4 | 0.68
O=C(Oc1coc(CSc2nnc(NC(=O)C3CC3)s2)cc1=O)c1ccccc1
→ 1.5 | -0.5
CC1CN(C(=O)c2cc3cc(Br)ccc3[nH]2)CC(C)O1 (stereo not given)
→ 0.46 | 0.14
CC1(C2CC2)NC(=O)NC1=O (stereo not given)
→ 1.4 | -0.42
Cc1cc(NC(=O)CCCn2nc(C)c([N+](=O)[O-])c2C)no1
→ 1.5 | 0.02
O=c1c2ccccc2c(C=Nc2cccc(S(=O)(=O)NCc3ccco3)c2)c(O)n1-c1ccc(Cl)cn1
→ 0.52 | -0.12
Cc1cc(C)cc(-n2c(C)nc3cc(C(=O)O)ccc32)c1
→ 0.99 | -2.8

(list continues)
Each structure is followed by: KCNQ2 enhance | KCNQ2 enhance baseline
COc1cccc(CNC(=O)C2Cc3ccccc3CN2C(C)=O)c1 (stereo not given)
→ 0.56 | 1.6
CCCCCC(=O)NC(NC(=S)NC1CCS(=O)(=O)C1)C(Cl)(Cl)Cl (stereo not given)
→ 0.72 | 1.2
CCC(C)c1ccc(C(C)NC(=S)NC2CCCCC2)cc1 (stereo not given)
→ 13* | -2.4*
CC1Sc2ccc(S(=O)(=O)N3CCC(C(=O)NCc4ccccc4)CC3)cc2NC1=O (stereo not given)
→ 1.4 | 0.43
O=C1c2cccc3c([N+](=O)[O-])c(O)cc(c23)C(=O)N1Nc1ccccc1
→ 2.9 | -1.9
CCOc1ccccc1CN1CCN(Cc2cccc3c2OCO3)CC1CCO (stereo not given)
→ 0.62 | 1.1
COCCNC(=O)/C(C#N)=C/c1ccc(O)cc1
→ 0.47 | -1.9
COC(CNC(=O)c1ccc2c(c1)ncn2-c1cc(C)cc(C)c1)OC
→ 0.07 | -1.2
CCOc1ccc(C(=O)CSCC(=O)O)cc1
→ 0.14 | 0.94
O=C(CCN1C(=O)/C(=C/c2cccc(Br)c2)SC1=S)NNC(=O)c1cccnc1
→ 0.02 | -2
COC(=O)c1ccc(NC(=S)Nc2cccc(C)n2)cc1
→ 0.54 | -1
Cc1cc(C)c(S(=O)(=O)Nc2ccc(N3CCOCC3)cc2)c(C)c1
→ 1 | -1.5
CCOc1ccc(OCCOCCN2CCOCC2)cc1
→ 0.6 | 2.2
O=C(O)c1nn(-c2ccc(F)cc2)ccc1=O
→ 2.1 | -0.12
COc1cccc2c(N/N=C/c3ccc(O)c(O)c3)cc(C)nc12
→ 0.13 | -2
O=c1[nH]n2c(-c3ccccc3)nc(O)c2c2ccccc12
→ 1.3 | 0.09
O=C(NNS(=O)(=O)c1ccc(C(=O)NC2CCCC2)cc1)c1ccncc1
→ 0.85 | 0.44
Cc1ccc(NC(=O)COC(=O)C2CC2C)c(S(=O)(=O)N2CCCCC2)c1 (stereo not given)
→ 5.3* | -1.7*
N#CCCSc1ccccc1NC(=O)c1cc(=O)c2ccccc2o1
→ 1.9 | -0.85
CN1C(=O)CS/C1=N\NC(=O)COc1cccc2cccnc12
→ 1.3 | -0.51
Cc1cccc(OCCCN2CCOCC2)c1C
→ 1.7 | 0.16
Cc1cccnc1NC(=O)c1csnn1
→ 0.86 | 0.01
COCCNC(=O)/C(C#N)=C/c1c(N2CCN(C)CC2)nc2ccccn2c1=O
→ 0.39 | -0.58
COc1ccc(S(=O)(=O)NNc2nc(C)cc(C)n2)cc1[N+](=O)[O-]
→ 1.5 | -1.4
O=S(=O)(c1cccs1)N1CCc2ccccc21
→ 0.95 | 0.68
CCOC(=O)C1CCN(S(=O)(=O)c2ccccc2[N+](=O)[O-])CC1
→ 0.26 | 0.18
O=C(CN1CCC(C(=O)c2ccc(F)cc2)CC1)Nc1ccccc1
→ 0.13 | 0.66
COc1ccc(OCC(=O)Nc2nnc(S(=O)(=O)N3CCCCCC3)s2)cc1
→ 0.27 | -1.5
CC(C)(C)c1nc(SCC(=O)N2CCCC2)c2ccccc2n1
→ 5.1 | 0.98
CC1=CC2=NC(=O)/C(=C\c3cc(C)n(-c4ccc(F)cc4)c3C)C(=N)N2O1
→ 1.4 | -1.2
O=S(=O)(NCCc1ccccc1)c1cccc2nsnc12
→ 1 | -0.9
COc1ccccc1NC(=O)Cc1noc(CSc2nnc(C(F)(F)F)n2C)n1
→ 0.77 | 0.04
NN1C(=O)/C(=C\c2ccco2)SC1=S
→ 0.84 | -0.29
COc1ccc(-c2coc3cc(O)ccc3c2=O)cc1
→ 0.23 | -1.3
O=c1oc2cc(O)ccc2c2c1CCCC2
→ 0.87 | -0.98
O=C(Nc1nnc(C2CCCCC2)s1)c1ccco1
→ 0.22 | -0.73
OCCNc1cnc2ccccc2n1
→ 0.89 | -1.2
Cc1nonc1NC(=O)OC1CCCCC1
→ 0.15 | 0.39
COc1ccc(CC(=O)N/N=C\c2cc(Br)c(O)c(Br)c2)cc1
→ 1.3 | -0.82
CCNC(=S)N/N=C/c1cccs1
→ 1.7 | 0.19

Not a retest: an excerpt of the list.
Each structure is followed by: KCNQ2 enhance | KCNQ2 enhance baseline
O=S(=O)(NCCc1ccccc1)c1cccc2nsnc12
→ 1 | -0.9
COc1ccccc1NC(=O)Cc1noc(CSc2nnc(C(F)(F)F)n2C)n1
→ 0.77 | 0.04
NN1C(=O)/C(=C\c2ccco2)SC1=S
→ 0.84 | -0.29

New compounds follow
Each structure is followed by: KCNQ2 enhance | KCNQ2 enhance baseline
Cc1ccc(Nc2cc(=O)n(C3CCCCC3)c(=O)[nH]2)cc1C
→ 0.17 | 0.36
O=C1C2CCCCC2C(=O)N1c1nccs1 (stereo not given)
→ 0.47 | -1.6
Cc1ccccc1OCC(=O)Nc1ccc(S(=O)(=O)Nc2ccccn2)cc1
→ 2.1 | -0.33
Cc1cc(C)n2nc(SCc3nnc(SCc4ccccc4Cl)s3)nc2n1
→ 0.66 | -3.2
Cc1cc(N2CCN(C(=O)c3ccco3)CC2)n2ncnc2n1
→ 1.9 | -1.4
Cc1csc(NC(=O)c2cc3c(s2)CCC3)n1
→ 0.78 | 0.09
O=C(/C=C/c1cn(-c2ccccc2)nc1-c1ccc2c(c1)OCCO2)NCCO
→ 1.1 | -0.01
CCC(=O)Nc1ccc(N2CCN(C(=O)c3ccco3)CC2)c(Cl)c1
→ 0.87 | 0.52
O=C(Nc1ccn(Cc2ccccc2)n1)c1n[nH]c([N+](=O)[O-])c1Cl
→ 1.4 | -2.6
CCCCSc1nc2c(cnn2-c2ccc(C)c(C)c2)c(=O)[nH]1
→ 0.03 | -0.5
CN(C)C(=O)N1CCC(C(=O)NC2CCCCCCC2)CC1
→ 0.13 | -0.72
COc1ccc(C2CC3(CC(C)(C)NC(=S)N3)Oc3cc(O)cc(C)c32)cc1OC (stereo not given)
→ 0.49 | -0.12
O=C(O)CSc1nnc(CNc2ccc(Cl)cc2)n1Cc1ccccc1
→ 0.32 | -0.01
COc1ccc(C2C(C(C)=O)=C(O)C(=O)N2CCCn2ccnc2)cc1OC (stereo not given)
→ 0.05 | 0.75
CC1(C)CC(NC(=S)NCc2ccc3c(c2)OCO3)CC(C)(C)N1
→ 1.1 | -2.4
CC(=O)c1cc2c(cc1NC(=O)CCn1cnnn1)OCO2
→ 1.4 | -0.04
O=C1NC(=O)N(c2ccccc2)C1=O
→ 2.9 | 1.5
O=C(CCC1CCCC1)NCc1cccs1
→ 3.9 | -0.18
c1ccc(CN2CCN(C3CCCSc4ccccc43)CC2)cc1 (stereo not given)
→ 0.12 | -0.43
CC(C)(C)c1[nH]c2ccccc2c1/C=N/O
→ 0.35 | 1.1
Cc1cccc(NC(=O)c2cc(=O)n(Cc3ccccc3)c(=O)[nH]2)c1
→ 0.69 | -1.5
CN(C)CCN(Cc1ccccc1)c1nccc(N(C)C)c1C#N
→ 0.35 | 0.17
CCn1nc(NS(=O)(=O)c2ccccc2)c2cc3ccccc3nc21
→ 0.05 | 0.81
Nc1nonc1-n1nnc(C(=O)N/N=C/c2c(Cl)cccc2Cl)c1CN1CCOCC1
→ 0.02 | -0.68
CS(=O)(=O)N1CCN(c2ccc(NC(=O)c3ccc(-c4ccc(Cl)cc4)o3)cc2)CC1
→ 0.52 | -2.1
CCC(=O)Nc1ccc(NC(=O)/C=C/c2ccc(Cl)cc2)cc1
→ 0.12 | 0.72
CCOc1ccccc1NC(=O)CSc1nnc(-c2ccncc2)o1
→ 0.01 | 0.13
COc1ccc(/C=C2\SC(=N)N(c3ccc(F)cc3)C2=O)cc1
→ 0.71 | 1.9
CC(C)(C)c1ccc(-n2nc(C#N)c(Cl)cc2=O)cc1
→ 3.2 | -2
O=C(CCCn1c(=O)[nH]c2ccccc2c1=O)NC1CCCCCC1
→ 1.9 | -0.18
O=C(Nc1nnc(C23CC4CC(CC(C4)C2)C3)s1)c1ccco1
→ 0.54 | -2.6
COc1ccccc1NC(=O)CC(NC1CCCCC1)C(=O)O (stereo not given)
→ 0.01 | -2.1
Cc1sc(NC(=O)c2ccco2)c(C(c2cccnc2)N2CCN(C)CC2)c1C (stereo not given)
→ 0.83 | 0.84

Some of the compounds tested, so the mix of outcomes need not match the whole.
